# GIV-Gai inh = inhibitors of GIV GBA-motif binding to rat Galpha-i3 | percent of control (FP), % (concentration not given with the values) | hit rate 0.42% among 210,000 | P08753 | Galpha-i3/FITC-GIV peptide fluorescence polarization, 90 min; stronger effect = lower value; scaled: aluminum fluoride 0%, vehicle 100%;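 active means replicate mean at 85% of control or lower, very high polarization wells dropped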;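 further: wells of about 15 µL received 100 nL stock; the first replicate is given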
# Target sequence (P08753 whole entry, looked up): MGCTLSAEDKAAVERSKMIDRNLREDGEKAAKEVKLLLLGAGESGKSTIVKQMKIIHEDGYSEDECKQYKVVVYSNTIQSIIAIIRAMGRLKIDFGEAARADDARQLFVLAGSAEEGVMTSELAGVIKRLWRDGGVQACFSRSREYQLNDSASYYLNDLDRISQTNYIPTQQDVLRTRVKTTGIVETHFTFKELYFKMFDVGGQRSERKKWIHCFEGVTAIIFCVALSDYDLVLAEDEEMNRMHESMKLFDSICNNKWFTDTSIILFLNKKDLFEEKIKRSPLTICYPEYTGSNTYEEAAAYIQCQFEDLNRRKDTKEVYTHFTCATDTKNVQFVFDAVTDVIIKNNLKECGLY
# HCMV UL50-53 inh = inhibitors of HCMV UL50-UL53 nuclear egress complex interaction. HTRF UL50-UL53 interaction, normalized percent inhibition. inhibition, % (concentration not given with the values). hit rate 0.15% among 190,000. AID 1918969;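 active means both replicates at 50% or more, plus weaker picks with an unusually low signal ratio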;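 further: stock transfer was 100 nL into about 20 µL; 0% = negative control wells and 100% = wells with untagged competitor protein; inactives centre near -12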
# Sa growth 42C = S. aureus growth inhibition; S. aureus RN4220 growth, OD600, 20 h, 42 °C; stronger effect = lower value; relative growth, % (concentration not given with the values); hit rate 0.53% among 170,000; AID 720641;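 active means growth at 42 °C up to 50% and 20 or more points under that at 30 °C, or under 10% at both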;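 further: 300 nL library stock went into each well; scaled to the means of positive and negative controls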
# Sa growth 42C second temp = further read-out of Sa growth 42C, marked with its call; relative growth, %; measured here: growth at 30 °C;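 optical density after 20 h as mean of two plates; 100% = untreated growth and lower means inhibition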
# An asterisk follows results filed as active; · = not tested or not shown; & = joins results of further samples.
Compound	Sa growth 42C	Sa growth 42C second temp	HCMV UL50-53 inh	GIV-Gai inh
COc1ccc(CN(C)Cc2cc(=O)n3ccsc3n2)c(OC)c1OC	94	100	-16	·
CCc1nnc(NC(=O)c2nnn(-c3ccc4noc(-c5ccc(Cl)cc5)c4c3)c2C)s1	·	·	-10	104
O=c1oc2ccccc2n1CCc1nnc(-c2ccccc2)o1	93	87	-12	101
COc1ccc2c(CC(=O)Nc3ccnn3CC(C)C)coc2c1	99	87	-18	·
CC(C)CNc1oc(-c2ccc(S(=O)(=O)N(C)C)cc2)nc1C#N	·	·	4	105
COC(=O)c1ccc(CSc2nc3ccccc3o2)cc1	95	79	-2	100
COc1ccc(NC(=O)c2cnn(-c3ccccc3)c2NC(=O)c2ccccc2F)c(OC)c1	99	86	-15	·
COc1ccccc1C(=O)Nc1ccc(C)cc1	115	72	-9	99
COCCNc1oc(-c2ccccc2)nc1S(=O)(=O)c1ccc(Cl)cc1	104	105	11	107
Cc1cc(-c2noc(C(C)(C)C)n2)no1	100	95	-3	101
COc1ccccc1NC(=O)c1c(C)nn(-c2ccccc2)c1Cl	100	55	-44	·
COC(=O)C(=C/C=C/N1CCCCC1)C(=O)OC	107	98	-84	103
CCN(c1ccccc1)S(=O)(=O)c1ccc(N2CCN(c3ccccn3)CC2)nc1	88	95	11	·
Cc1cc(C)cc(NS(=O)(=O)c2ccc3[nH]cc(C(=O)NCCC4=CCCCC4)c(=O)c3c2)c1	109	101	·	106
CCn1c(O)c(C=Nc2cccc(O)c2)sc1=S	95	93	-12	66*
O=C(CN1C(=O)CC(c2ccc(F)cc2)=Nc2ccccc21)Nc1ccc2c(c1)OCCO2	·	·	-35	103
Cn1c(SCc2ccccc2)nc2c([nH]c3ccccc32)c1=O	98	86	·	102
COc1ccccc1C1CC(=O)Nc2c1c(C)nn2-c1nncc(-c2ccc(C)cc2)n1 (stereo not given)	·	·	-35	97
CC(=O)NCCCc1ccc(-c2csc(N)n2)cc1	95	68	-38	·
Cc1nc2c(=O)[nH]c(=O)n(C)c2nc1C	84	85	-36	106
CCC(C)NC(=O)COc1cccc(C)c1C (stereo not given)	100	96	-9	101
COc1ccccc1CNc1ncc2nc(-c3ccccc3)oc2n1	·	·	18	90
COCCCN=C1NN=C(c2ccc(C)c(C)c2)CS1	80	68	-35	·
NC(=O)c1cc2sccc2s1	90	91	-29	105
CC1CC(C)CN(C(=O)COC(=O)c2ccc(N3CCCC3=O)cc2)C1 (stereo not given)	98	98	-14	·

# Record cards, as listed above. Values in the order: Sa growth 42C | Sa growth 42C second temp | HCMV UL50-53 inh | GIV-Gai inh
# CCN(c1ccccc1)S(=O)(=O)c1ccc(N2CCN(c3ccccn3)CC2)nc1 in the list: 88 | 95 | 11 | ·
# COc1ccccc1C(=O)Nc1ccc(C)cc1 in the list: 115 | 72 | -9 | 99
# COc1ccccc1NC(=O)c1c(C)nn(-c2ccccc2)c1Cl in the list: 100 | 55 | -44 | ·
# CC(C)CNc1oc(-c2ccc(S(=O)(=O)N(C)C)cc2)nc1C#N in the list: · | · | 4 | 105
# O=C(CN1C(=O)CC(c2ccc(F)cc2)=Nc2ccccc21)Nc1ccc2c(c1)OCCO2 in the list: · | · | -35 | 103

# Following part:
Compound	Sa growth 42C	Sa growth 42C second temp	HCMV UL50-53 inh	GIV-Gai inh
CC1CCCCN1C(=O)c1ccc(C(=O)N2CCCCC2C)cc1 (stereo not given)	98	93	-21	107
Cc1nc2ccccc2c2c1C(=O)N(c1ccccc1C(=O)OCC(=O)C(C)(C)C)C2=O	·	·	7	103
Cc1noc(C)c1S(=O)(=O)NC1CCCC1	92	91	-3	101
CC(=O)OC1CC(C)(C)N(C(C)=O)C(C)(C)C1	103	113	-3	96
Fc1ccc(-n2ncc3c(Nc4ccc(Oc5ccc(Cl)cc5)cc4)ncnc32)cc1	111	94	·	100
C=C(C)C1CC=C(C)/C(=N\NC(=O)c2ccc(O)cc2)C1 (stereo not given)	99	86	-36	107
COc1ccc(CNC(=O)Cn2cc(-c3nnco3)c3ccccc32)cc1	·	·	7	97
CN(C)S(=O)(=O)c1ccc(C(=O)Nc2c3c(nn2-c2ccccc2)CSC3)cc1	105	96	28	111
CCc1ccc(NC(=O)N2CCN(c3ccc(-c4noc(C)n4)cc3)CC2)cc1	·	·	4	104
O=C(Nc1nc(-c2ccc(OC(F)(F)F)cc2)no1)NN1CCCCC1	114	84	-22	103
CC(C)N(C(=O)CSc1nnnn1-c1ccccc1)C(C)C	106	83	-3	100
COc1cccc2c1Oc1ncccc1N(c1ccc(C(=O)NCCN(C)C)s1)C2	100	88	-73	106
O=C(NC1CCCC1)C1CCN(c2nccn3nc(-c4cccs4)cc23)CC1	·	·	-6	120
CC(C)c1nn2c(=O)cc(COC(=O)c3ccco3)nc2s1	91	94	·	99
NC(=O)c1ccccc1NCC(=O)c1ccc(Cl)cc1	102	84	·	102
CC(C)CC(=O)Nc1ccc2nc(SCc3cc(=O)n4ccsc4n3)sc2c1	77	69	-32	101
CCc1ccc(-n2c(=O)c3c4c(sc3n(Cc3ccc(C)cc3)c2=O)CCC4)cc1	94	105	11	102
CCOC(=O)C1CCN(C(=O)c2ccc3c(=O)n4nc(Nc5cc(C)ccc5C)sc4nc3c2)CC1	95	83	·	109
CCCn1c(=O)sc2cc(NC(=O)c3ccccc3OCC)ccc21	117	86	-12	103
COc1cccc(N2CCN(C(=O)CN(C)S(=O)(=O)c3ccc4c(c3)nnn4C(C)C)CC2)c1	·	·	-14	107
COc1ccc(NC(=O)c2nnc(COCC(=O)NCCc3c[nH]c4ccc(Cl)cc34)s2)cc1	·	·	-50	105
CCOc1ccc(N2C(=O)c3cc(C(C)(C)C)nn3CC2(C)C(=O)NCc2ccccc2)cc1 (stereo not given)	·	·	2	103
Cc1sc2nc(CCl)[nH]c(=O)c2c1-c1ccccc1	109	71	-7	·
CCOC(=O)c1ccc(N2C(=O)c3n[nH]c(-c4ccco4)c3C2c2cccc(OC)c2)cc1 (stereo not given)	91	74	-22	104
Cc1cccc(-c2nc(N)n(C(=O)C(C)C)n2)c1	·	·	-26	107
COc1ccc2[nH]cc(CCNC(=O)Nc3ccccc3-c3ccccc3)c2c1	·	·	-8	98
COc1ccc(-c2noc(-c3cccnc3N(C)C)n2)cc1	·	·	-5	94
Cc1ccc2sc(N(CCCN(C)C)C(=O)c3ccco3)nc2c1C	105	98	·	98
O=C1NC(O)=NC1(c1ccccc1)c1ccccc1	·	·	-22&-2	107
CCOC(=O)c1c(NC(=O)NC(C)(C)C)sc2c1CCN(C)C2	95	87	-17	103
CCN(CC)S(=O)(=O)c1ccc(CNC(=O)c2ccc[nH]2)cc1	83	91	-22	·
CCN(CC)C(=O)CC1(CC(=O)N(CC)CC)C(=O)N(C)C(=O)N(C)C1=O	96	78	-14	104
CCCOc1cccc(NC(=O)c2occc2C)c1	82	81	-3	·
Cc1ccc(CNC(=O)CSc2n[nH]c(-c3ccc(F)cc3)n2)cc1	95	100	·	96
Cc1noc(C)c1C(=O)Oc1ccc(-c2n[nH]nc2C#N)cc1	73	45	·	100
Cc1ccc(CS(=O)Cc2ccc(C(=O)NCc3ccccc3)o2)cc1 (stereo not given)	95	73	·	99
O=C(COC(=O)C1CC(=O)N(Cc2ccccc2)C1)Nc1ccc(SC(F)F)cc1 (stereo not given)	109	93	19	·
O=C(CSc1nnc(Cc2ccsc2)o1)c1ccccc1	108	86	1	111
CN(C)C(CNC(=O)c1ccccc1SCC(=O)NCc1ccco1)c1ccccc1 (stereo not given)	78	88	-7	·
CC(Sc1nnc(-c2cccs2)n1-c1ccccc1)C(=O)NCc1ccc2c(c1)OCO2 (stereo not given)	100	102	-8	·
CCSc1nnc(-c2cc(-c3cccs3)nc3ccccc23)o1	70	75	-19	·
O=C(NCCc1csc(-c2ccc(F)cc2)n1)c1cccs1	80	78	·	104
CN1CCC(N)CC1	87	91	-1	·
Cc1cc2cc(CNC(=O)Nc3cccc(Cl)c3)ccc2n1C	100	93	·	100
CCN1CCN(C(=O)C2CCCN(S(=O)(=O)c3cc(-c4noc(C5CC5)n4)sc3C)C2)CC1 (stereo not given)	·	·	-11	105
CCOc1ccc(/C=N/C2=C(C#N)C3CCCCC3S2)cc1OC (stereo not given)	106	95	-7	104
Cc1cc(C)cc(NC(=O)c2cc(CN3CCCC3)on2)c1	100	90	·	104
COc1ccc(-n2ncc3c2ncn2nc(-c4ccccc4)nc32)cc1	100	82	-9	103
COCC(C)N1CC(C(=O)O)CC1=O (stereo not given)	91	82	·	105
COC(=O)c1sc(NC(=O)CSc2nnc3ccc4ccccc4n23)c(C(=O)OC)c1C	·	·	-17	101

# Other records follow:
Compound	Sa growth 42C	Sa growth 42C second temp	HCMV UL50-53 inh	GIV-Gai inh
CCN1/C(=C2/SC(=S)N(C)C2=O)Sc2ccc(S(=O)(=O)C(F)(F)F)cc21	112	103	-3	104
N#CC1=C(N)C(C#N)(C#N)C(c2ccco2)C2CCCC=C12 (stereo not given)	90	68	-65	131
CC(=O)c1cccc(NC(=O)Cn2c(=O)oc3cc(S(=O)(=O)NC4CCCC4)ccc32)c1	98	87	-30	104
N=C1/C(=C/c2ccc(F)cc2)C(=O)N=C2SC(C(F)(F)F)=NN12	104	83	·	102
COc1ccccc1NC(=O)Cn1c(=O)n(Cc2ccccc2)c(=O)c2sc3ccccc3c21	93	97	2	101
NC(Cc1c[nH]c2ccccc12)C(=O)O (stereo not given)	99&94	96&101	-23&11	106
O=C(c1ccc(N2CCCC2=O)cc1)N1CCCC1	121	88	·	107
O=C(CN1CCCCCCC1)N/N=C/c1ccccc1C(F)(F)F	107	102	-14	96
CCn1c(=O)cc(OCC(=O)N2CCN(c3ccccc3OC)CC2)c2ccccc21	109	83	-8	105
CCOC1CC(C)(C)NC(=S)N1 (stereo not given)	95	83	-2	·
COc1ccc(NC(=O)c2cnc(SC)nc2)cc1	102	77	-10	103
Cc1ccc(CCNC(=O)CCCn2nc(C)c3c(C)n(-c4ccccc4)nc3c2=O)cc1	88	94	·	95
CC(C)(C)C(=O)Cn1c(=O)n(-c2ccc(Cl)c(Cl)c2)c(=O)c2c3c(sc21)CCCC3	95	92	-5	110
OC(CN1CCc2ccccc2C1)C(F)(F)F (stereo not given)	·	·	-14	102
COc1cccc(Nc2ccc(C(=O)O)cc2N)c1	78	88	·	104
COc1cc(OC)c(NC(=O)Cc2c(C(=O)O)c(C)cn2C)cc1Cl	107	91	·	97
COC(=O)c1cc(NC(=O)CCc2c(C)nc3nc(C)nn3c2C)cc(C(=O)OC)c1	99	88	-9	105
NC(=O)CSc1nsc(SCC(N)=O)n1	107	89	-57	97
CCSc1nnc(NC(=O)CC(C)C)s1	88	77	-17	100
CC1=NN(c2nc3ccccc3s2)C(O)(C(F)(F)F)C1 (stereo not given)	111	79	·	104
Cc1ccc(NC(=O)CN2C(=O)CSc3ncccc32)cc1	93	87	·	105
COc1ccccc1NCC(=O)Nc1ccc(N2CCOCC2)cc1	112	97	-13	·
Cc1cccc(C)c1NC(=O)CSCc1cnn(-c2ccccc2)c1-n1cccc1	113	102	-13	101
CC(C)c1cc(C(=O)NCc2nc3ccccc3[nH]2)nn1C1CCS(=O)(=O)C1 (stereo not given)	·	·	5	99
CC(=O)Oc1ccc2c(c1)CCC1C2C(C)(O)CC2(C)C(OC(C)=O)CCC12 (stereo not given)	121	94	0	109
CCN1CCN(c2cc(C)c3cc(NC(=O)c4cc(Cl)ccc4OC)ccc3n2)CC1	101	65	-4	101
COc1cccc(OC)c1C1N=C(N)Nc2nc3ccccc3n21 (stereo not given)	73	90	-3	·
O=C(Nc1ccc(Cl)cc1)c1cnc2ccccn2c1=O	·	·	-3	107
Cc1ccc(C)c(NC(=O)Cn2c(=O)n(-c3ccccc3C)c(=O)c3c2c2cc(C)ccc2n3C)c1	83	81	·	111
CCC(Oc1ccc2c(c1)C(=O)CC(C)(C)O2)C(=O)NCc1ccco1 (stereo not given)	98	86	4	107
COc1ccc(NC(=O)Nc2ccc(N3CCCC3=O)cc2)cc1OC	94	94	2	·
O=C(Nc1ccc(F)c(Cl)c1)N1CC=C(c2c[nH]c3ccccc23)CC1	106	57	·	135
O=C(NCCc1ccccn1)c1ccccc1OCc1ccccc1	116	72	-29	·
O=S(=O)(c1ccc(Cl)cc1)N(CCc1ccccn1)c1ccc(Cl)cc1	87	90	-19	102
COc1ccc(-c2cc3nccc(-c4cc(C)ccc4O)n3n2)cc1	·	·	4	103
CCn1c(=O)c(N2CCCC(C(=O)O)C2)nc2cccnc21 (stereo not given)	·	·	-29	101
COc1ccc(CNC(=O)Cn2nnc(-c3ccc(S(C)(=O)=O)cc3)n2)cc1	96	93	-13	101
CCOc1ccc(CCNC(=O)C2CCN(S(C)(=O)=O)CC2)cc1OCC	128	93	·	102

# Screening results: PubChem, ICCB-Longwood Screening Facility, Harvard Medical School
